Screens from PubChem.
GLA inh pH 4.5 – qHTS Assay for Inhibitors of Human alpha-Galactosidase at pH 4.5; Alpha-galactosidase A (Homo sapiens), P06280; purified enzyme, 4-MU-alpha-Gal fluorescence, pH 4.5; 230,000 tested, under 10 active; activity change, negative = inhibition, % at 105 µM; AID 1467, 2008; inconclusive = small, poorly fitted or top-dose-only inhibition, or a rising curve; inactive = flat fitted curve, though single readings scatter; no compound was filed as active;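 note: 0% = full activity with enzyme and -100% = basal without enzyme; dose as in the result columns while the protocol names 77 µM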
Rango complex inh – qHTS Assay for Inhibitors of Rango (Ran-regulated importin-beta cargo) - Importin beta complex formation; Potency, µM (doses to about 92.2 µM), for inactives: at the top dose inhibition of complex formation; 340,000 tested, 0.031% active; Rango CFP/YFP FRET sensor + importin beta, 45 min; active = rising FRET ratio curve, often small or poorly fitted; inconclusive = mostly compound fluorescence or quenching in the first reads; inactive = flat curves in all reads;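 note: potency is the fitted concentration of half-maximal effect; 0% = DMSO wells and 100% = buffer wells lacking importin beta; nearly all actives have a fitted effect of over 15% in size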
Target sequence (Q14974 whole entry, looked up): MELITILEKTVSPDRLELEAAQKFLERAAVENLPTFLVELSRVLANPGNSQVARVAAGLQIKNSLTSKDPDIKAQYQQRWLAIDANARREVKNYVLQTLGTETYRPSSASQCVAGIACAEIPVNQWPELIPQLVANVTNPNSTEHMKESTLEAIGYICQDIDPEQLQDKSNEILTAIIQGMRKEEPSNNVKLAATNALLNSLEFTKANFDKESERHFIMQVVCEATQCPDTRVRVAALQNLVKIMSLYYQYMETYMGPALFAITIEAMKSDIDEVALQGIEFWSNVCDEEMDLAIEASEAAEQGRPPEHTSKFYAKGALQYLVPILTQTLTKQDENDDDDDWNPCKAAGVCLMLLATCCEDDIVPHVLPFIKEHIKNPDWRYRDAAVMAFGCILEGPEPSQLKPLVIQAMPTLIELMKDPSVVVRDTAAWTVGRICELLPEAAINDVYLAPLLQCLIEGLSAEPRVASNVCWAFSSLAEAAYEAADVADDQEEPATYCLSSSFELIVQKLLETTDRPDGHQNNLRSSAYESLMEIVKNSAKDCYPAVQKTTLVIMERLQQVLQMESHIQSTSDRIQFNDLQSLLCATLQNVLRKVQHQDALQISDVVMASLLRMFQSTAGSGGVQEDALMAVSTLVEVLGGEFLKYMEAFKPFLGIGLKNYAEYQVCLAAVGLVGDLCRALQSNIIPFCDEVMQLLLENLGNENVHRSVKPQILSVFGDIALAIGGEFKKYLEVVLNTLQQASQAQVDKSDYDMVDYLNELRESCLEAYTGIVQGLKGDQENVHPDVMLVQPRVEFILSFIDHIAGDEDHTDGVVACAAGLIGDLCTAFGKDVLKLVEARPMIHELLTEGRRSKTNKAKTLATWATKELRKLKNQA
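FRET biosensor Rango (snurportin 1 IBB between N-terminal EYFP and C-terminal Cerulean), 50 nM in PBS/1 mM DTT/0.02% Tween-20/0.1% BSA, preincubated 5 min RT with compound; 0.125 microM importin beta added, 45 min RT, CFP/YFP FRET ratio read.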
Rango release inh – qHTS Assay for Inhibitors of RanGTP induced Rango (Ran-regulated importin-beta cargo) - Importin beta complex dissociation | AID 540253, 2011 | Potency, µM (titrated, usually from 46.1 µM), for the others: top-dose activity change, negative = inhibition | Biochemical FRET Rango-importin beta, RanGTP-induced dissociation | Snurportin-1 (Homo sapiens) + GTP-binding nuclear protein Ran (Homo sapiens) + Importin … | 340,000 tested, 0.071% active; active means falling FRET ratio curve, often poorly fitted, with flat reads before Ran was added; inconclusive means other falling curves, or compound fluorescence or quenching; inactive means flat or rising ratio curve;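 note: potency is the fitted concentration of half-maximal effect; % of control where 0% means no effect; nearly all actives have a fitted effect of over 45% in size; -100% = wells without RanGTP and RCC1; the record marks most hits as doubtful in a second field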
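Compounds sat 5 min at room temperature with 0.1 uM Rango biosensor plus 0.25 uM importin beta, then FRET pre-read. RanGTP-RCC1 (0.6 uM Ran, 2mM GTP, 0.2 uM RCC1) added for 45 min, and the CFP/YFP post-read measured blocked complex dissociation.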
miR-21 FLuc – qHTS Assay for Modulators of miRNAs and/orActivators of miR-21 | HeLa miR-21 FLuc reporter, luciferase, 48 h | Potency, µM (series often up to 38.3 µM), for the others: top-dose reporter change, positive = more light | 340,000 tested, under 10 active | AID 2288, 2010; active = well fitted rising curve with a large enough effect; inconclusive = small, poorly fitted or top-dose-only effect; inactive = no such curve, though single readings can be large or run the other way;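 note: % of control where 0% means no effect; miR-21 action dims this reporter so a rising signal means less miR-21 action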
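HeLa cells stably expressing CMV-driven firefly luciferase with a downstream miR-21 binding sequence, endogenously expressing miR-21, were treated with titrations (up to about 40uM final) for 48 hours at 37 degree Celsius. Luciferase luminescence was read after lysis.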
Numbers without * were called inactive; u = inconclusive; x = not tested or not shown; & = joins results of further samples.

Compound | GLA inh pH 4.5 | Rango complex inh | Rango release inh | miR-21 FLuc
Cc1nnc(SCC(=O)NNC(=O)c2ccco2)n1-c1cccc(Cl)c1 | 3 | -4.2% | -24% | 2%
COC(=O)CCCC(=O)N1CCCC(N(C)CCc2ccccc2)C1 (centres undefined) | x | -3.5% | 2% | -5%
COc1cccc(NC(=O)C2CC2)c1 | x | -0.8% | -3% | x
CCOC(=O)COc1cccc2c(=O)n(CC(=O)N3CCN(C(=O)OCC)CC3)ccc12 | -4 | 0.4% | 1% | -3%
O=[N+]([O-])c1cc([N+](=O)[O-])c(Oc2ccc(Cl)c3cccnc23)cc1NN1CCCCC1 | x | 7.5% | 19% | 0%
CC(NC(=S)Nc1ccc(S(=O)(=O)N2CCOCC2)cc1)C1CC2CCC1C2 (centres undefined) | -10 | -0.7% | -3% | u
Cc1cc(=O)oc2c1ccc1ccccc12 | x | -0.2% | 12% | -6%
COc1ccc(S(=O)(=O)N2CCCCCC2)cc1N(C)S(=O)(=O)c1ccccc1 | 1 | u | 1% | 15%
O=c1c(C/C=C/c2ccccc2)c(O)nc2n1CCCS2 | 9 | 0.2% | 27% | -1%
CCOC(=O)C(C(=O)OCC)C1N=C(N)N=C2Oc3ccccc3N21 (centres undefined) | 5 | 7.0% | -5% | -29%
C/C(=N\NC(=O)C12CCC(C)(C(=O)O1)C2(C)C)c1ccccc1O (centres undefined) | -16 | u | 4% | 17%
CC(C)(C)NC(=O)[C@]1(C)CCC[C@@]2(C)C3CC[C@@]4(C)C[C@]3(CCC21)CC4=O (some centres undefined) | x | 1.2% | -4% | x
COc1ccc(NCc2nnc(SCC(=O)Nc3ccc(OC)cc3)n2C)cc1 | -5 | -0.9% | 2% | -7%
COc1ccc(NC(=S)N(CCCN2CCOCC2)Cc2cn(C)c3ccccc23)cc1 | 8 | 1.6% | 0% | -28%
CCOC(=O)c1c(NC(=O)/C=C/c2ccc3c(c2)OCO3)sc(C)c1C | 4 | x | x | -1%
COc1cc(/C=C2/CCC/C(=C\c3cc(O)c(OC)c(Cl)c3)C2=O)cc(Cl)c1O | -10 | u | u | u
Clc1ccc(-c2nnc(N3CCOCC3)o2)cc1 | -9 | -0.6% | 18% | -62%
Cc1cc(C(=O)NCC2CCCO2)sc1C (centres undefined) | x | -1.7% | -7% | x
CCOc1ccccc1C(=O)NC(C(=O)Nc1ccccc1N1CCOCC1)C(C)C (centres undefined) | -6 | -0.7% | 1% | 1%
CC(=O)Nc1ccc(S(=O)(=O)NCCSCc2ccccc2Cl)cc1 | -2 | -0.3% | -13% | 13%
O=C(CCc1nc2ccccc2s1)Nc1ccccc1 | -5 | u | 1% | -6%
CN(Cc1ccc(Cl)cc1Cl)C(=O)c1cccc(S(=O)(=O)N2CCN(c3ccccc3)CC2)c1 | x | 0.4% | -1% | x
COc1ccc2[nH]c3c(=O)n(CCCCC(=O)N4CCC(C(N)=O)CC4)c(=S)[nH]c3c2c1 | 2 | -0.3% | 1% | 4%
O=C(CCn1cnnn1)N1CCCC(Nc2ccc(F)c(F)c2)C1 (centres undefined) | x | -4.5% | 7% | -3%
O=C(N/N=C/c1ccc2c(c1)OCO2)c1sc2cccc(Cl)c2c1Cl | 1 | -2.2% | 1% | -3%
Cc1ccc(S(=O)(=O)N2CCN(C(=O)CCC(=O)NCCc3ccc(F)cc3)CC2)cc1 | 3 | -4.7% | -14% | -1%
CCC(=O)N1CCc2cc(OC)c(OC)cc2C1COc1ccc(F)cc1 (centres undefined) | x | 0.1% | -1% | -13%
CCC(=O)c1ccc(OC(=O)Cc2ccc(OC)cc2)cc1 | x | 2.3% | 3% | -4%
Fc1ccccc1-c1nc(-c2ccc(Br)o2)no1 | x | -0.6% | 1% | -33%
CSc1ncc(Cl)c(C(=O)Nc2ccc(S(=O)(=O)N3CCOCC3)cc2)n1 | -1 | 5.1% | -5% | -6%

Entries listed so far containing an aryl thioether with sulfur outside any ring, in the order listed:
Compound | GLA inh pH 4.5 | Rango complex inh | Rango release inh | miR-21 FLuc
Cc1nnc(SCC(=O)NNC(=O)c2ccco2)n1-c1cccc(Cl)c1 | 3 | -4.2% | -24% | 2%
COc1ccc(NCc2nnc(SCC(=O)Nc3ccc(OC)cc3)n2C)cc1 | -5 | -0.9% | 2% | -7%
CSc1ncc(Cl)c(C(=O)Nc2ccc(S(=O)(=O)N3CCOCC3)cc2)n1 | -1 | 5.1% | -5% | -6%

New compounds follow
Compound | GLA inh pH 4.5 | Rango complex inh | Rango release inh | miR-21 FLuc
CC(=O)Oc1ccccc1N(C(C)=O)S(=O)(=O)c1ccc(C)cc1 | 1 | 2.4% | -11% | 0%
O=C(Nc1cccc(-n2cccn2)c1)C1CCCN(Cc2cc3ccccc3[nH]2)C1 (centres undefined) | x | -5.8% | -23% | 7%
Cn1cnnc1SCC(=O)N1N=C2/C(=C/c3ccco3)CCCC2C1c1ccco1 (centres undefined) | 0 | -2.1% | -11% | -12%
Clc1ncnc2[nH]ccc12 | x | 3.0% | 2% | x
CCc1ccc(Cc2cnc(NC(=O)C3=NCCN3)s2)cc1 | -6 | 0.8% | -11% | -1%
Cc1ccccc1CSCC(=O)c1c(N)n(CC(C)C)c(=O)n(C)c1=O | 9 | 0.6% | 17% | 0%
COc1cccc2c(=O)n(CC(=O)N3CCCCC3)ccc12 | 10 | -2.3% | -9% | -5%
COc1ccccc1NS(=O)(=O)c1cc(NC(=O)c2ccc(Cl)nc2)ccc1N1CCCC1 | x | 0.2% | -1% | x
COc1ccc2c(c1)O[C@@H](c1ccc3c(c1)OCO3)[C@H](OC(=O)Nc1cc(OC)c(OC)c(OC)c1)C2=O | 2&-7 | x | x | -2%
Cc1ccc(C(=O)OCC(=O)N2C(C)CCCC2C)cc1S(=O)(=O)N1CCOCC1 (centres undefined) | x | 8.3% | -3% | x
Cc1cc(C)c2c(N)c(C(=O)Nc3ncc(C)s3)sc2n1 | -10 | u | u | u
C/C(CC(=O)Nc1ccc2c(c1)OCCO2)=N\NC(=O)C(=O)Nc1ccccc1C | -11 | 1.8% | 20% | -21%
O=C(COc1cccnc1[N+](=O)[O-])Nc1ccccc1Sc1ccccc1 | -2 | 0.5% | 0% | -20%
N#Cc1ccc(C(=O)OCCCc2cc3ccccc3c(=O)o2)cc1 | x | 4.0% | 4% | x
COCCN(CC(=O)Nc1ccc(F)cc1)S(=O)(=O)c1ccc(S(=O)(=O)N2CCCC2)cc1 | 3 | 2.2% | -4% | -6%
CC(C)OC(=O)c1cccc(C(=O)OCc2ccco2)n1 | 1 | u | 2% | 13%
Cc1cc(NN)nc(NS(=O)(=O)c2ccccc2Cl)n1 | -3 | 0.3% | 13% | -1%
COc1ccc(/C=C2\SC(=N)N(c3nccs3)C2=O)cc1OC | -5 | u | u | -5%
COc1ccc(N=Nc2nc3ccc(Br)cc3n2C)cc1 | 1 | u | u | -55%
Cc1onc(-c2ccccc2)c1C(=O)OCC(=O)N(CC(C)C)c1c(N)n(Cc2ccccc2)c(=O)[nH]c1=O | x | -2.3% | 11% | x
CCOC(=O)c1sc2ncn(/N=C/c3ccc(O)cc3)c(=O)c2c1C | -29 | 0.5% | 1% | -17%
COC(=O)c1ccc(/C=N/NC(=O)c2ccccc2Cl)cc1 | 2 | 1.9% | 23% | -24%
Cn1cnnc1Sc1ccc(C(F)(F)F)cc1[N+](=O)[O-] | 1 | 0.0% | -18% | 7%
Cn1c(=O)c2c(SCc3ccccn3)nc(CC(C)(C)C)nc2n(C)c1=O | -4 | -1.0% | -19% | -3%
O=S(=O)(c1ccccc1)N(Cc1ccccc1)c1ccccn1 | 0 | 1.4% | -1% | -7%
CCS(=O)(=O)C(=C1Nc2ccccc2N1)S(=O)(=O)CC | -4 | 0.7% | 1% | -5%
CCOC(=O)c1ccc(/C=C2/C=C(c3ccccc3)N(c3ccc(Cl)c(C(=O)O)c3)C2=O)cc1 | 4 | u | u | 26%
Cc1ccc(S(=O)(=O)N(CCCc2c(C)nc[nH]c2=O)c2ccccc2)cc1 | x | 2.2% | 7% | x
Cc1nn(CC(=O)N2CCCc3ccccc32)c(C)c1[N+](=O)[O-] | 2 | -0.4% | -8% | -26%
COC(=O)[C@@H]1CC[C@H](C)[C@@H](c2ccc(C)cc2)N1C(=O)c1ccc(/C=N/OCC[C@@H]2C=C[C@H](OC(C)=O)[C@@H](COC(C)=O)O2)cc1 | 5 | x | x | 2%

(list continues)
Under each structure: GLA inh pH 4.5	Rango complex inh	Rango release inh	miR-21 FLuc
- Cc1ccccc1Cn1nc(C)c(NC(=O)C(F)(F)F)c1C
→ -4	-0.4%	18%	-6%
- CC(OC(=O)c1ccc(NS(=O)(=O)c2ccc3[nH]c(=O)[nH]c3c2)cc1)C(=O)Nc1cccc(Cl)c1Cl (centres undefined)
→ 6	-2.4%	7%	-7%
- Cc1nc2ccccc2c(=O)n1-c1ccc(NS(=O)(=O)c2ccccc2)cc1
→ x	3.3%	-2%	x
- Cc1sc2ncnc(NCc3cccnc3)c2c1C
→ -2	-1.8%	6%	-7%
- CCOC(=O)N1CCN(C(=O)COc2ccc(Cl)c(C)c2)CC1
→ -3	-0.5%	-10%	-9%
- Clc1ccc(OCCSCc2nc3ccccc3[nH]2)cc1
→ -23	1.6%	-5%	15%
- Cc1ccc(CCNC(=O)CCS(=O)(=O)c2cc3c(cc2C)NC(=O)CO3)cc1
→ x	1.0%	5%	-5%&-1%
- Cc1cccc(-c2ncc(CN3CCCC(CO)(Cc4ccccc4C)C3)cn2)c1 (centres undefined)
→ -5	-1.4%	-6%	1%
- CCOC(=O)c1sc(NC(=O)CCCCCN2C(=O)c3cccc4cccc(c34)C2=O)nc1C
→ 10	1.1%	6%	-1%
- COC(=O)CCC(=O)OC1(C)C(=O)C=C2C=C3CCCN3C=C2C1=O (centres undefined)
→ 8&-11	-4.8%	u	4%
- Cc1cccc(NC(=S)NCCO)c1C
→ 3	1.9%	0%	4%
- Nc1ncnc2c1ncn2C1OC(COP(=O)(O)O)C(O)C1O (centres undefined)
→ -4	0.2%	0%	2%
- COc1ccc(OC)c(NC(=O)Cc2ccc(NC3=NC4CS(=O)(=O)CC4S3)cc2)c1 (centres undefined)
→ x	0.7%	4%	-4%
- O=C(NCCC(=O)N1CCC2(CC1)NCCc1[nH]cnc12)c1cccc(Cl)c1
→ x	-1.0%	2%	-2%
- FC(F)(F)c1cc(CO[C@@H]2CCCN[C@@H]2c2ccccc2)cc(C(F)(F)F)c1
→ x	0.8%	3%	x
- COC(=O)c1sc(NC(=O)CSc2nnnn2-c2cccc(OC)c2)nc1C
→ 0	3.3%	4%	-5%
- CCOc1ncccc1C(=O)N(CC)CC(=O)NCc1ccc(Cl)cc1
→ x	-3.0%	2%	8%
- Cc1ccccc1CC(=O)Nc1cc(C(C)(C)C)on1
→ x	-0.4%	-12%	-20%
- CCOC(=O)C1(C/C(C)=N/NC(N)=O)CC(C)OC1=O (centres undefined)
→ 2	-1.6%	13%	-2%
- CCOc1ccccc1N1CCN(C(=O)CCNS(=O)(=O)c2ccccc2F)CC1
→ x	-5.4%	2%	x
- Cn1cnnc1SCC(=O)NCCC(c1ccccc1)c1ccccc1
→ -1	0.1%	-3%	-1%

Limited to Rango release inh (4 entries from above):
canonical_smiles	Rango release inh
Clc1ccc(OCCSCc2nc3ccccc3[nH]2)cc1	-5%
Cc1ccc(CCNC(=O)CCS(=O)(=O)c2cc3c(cc2C)NC(=O)CO3)cc1	5%
Cc1cccc(-c2ncc(CN3CCCC(CO)(Cc4ccccc4C)C3)cn2)c1 (centres undefined)	-6%
CCOC(=O)c1sc(NC(=O)CCCCCN2C(=O)c3cccc4cccc(c34)C2=O)nc1C	6%

Not all compounds are listed; rates above refer to the full screens.
